# Screening results: PubChem, Broad Institute
# rRNA inh HTS = inhibits bacterial ribosomal RNA function over humanized ribosomes; 1.6% of 350,000 active; GFP signal change (wild-type ribosome), % (no concentration beside the values); E. coli WT GFP vs humanized-ribosome RFP mutants, fluorescence, 24 h; active compounds read low; DMSO median 0, no signal -100;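 active = significant combined selectivity score with lowered wild-type GFP, culture density cut under 30%, mutant RFP and density less affected; inactive = any of these conditions unmet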; note: one replicate is shown; some compounds called inactive have numbers as strong as hits
# rRNA inh HTS OD600 = second read-out of rRNA inh HTS, no call of its own (marks repeat the call); OD600 change, %; measured here: OD600 growth;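 optical density of the mix in the first replicate; 0 = DMSO median and -100 = no signal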
# rRNA inh HTS RFP = also measured in rRNA inh HTS; calls as there; RFP signal change, %; measured here: RFP humanized mutant strains;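 first replicate; 0 = DMSO median and -100 = no signal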
# * hit, by the source's call; & = joins results of further samples. Some of the compounds tested (hit frequency here may not be typical).
SMILES | rRNA inh HTS | rRNA inh HTS OD600 | rRNA inh HTS RFP
CCOc1ccc(CCNC(=O)COC(=O)c2ccc(C)c(S(=O)(=O)N3CCOCC3)c2)cc1OCC | 2 | 3 | 1.0
COc1ccc(NC(=O)Nc2ccc3c(c2)C(=O)N([C@@H](C)CO)C[C@H](C)[C@H](CN(C)S(=O)(=O)c2cccs2)OCCCC[C@@H](C)O3)cc1 | -1 | -1 | 0.7
C[C@@H]1CN([C@@H](C)CO)C(=O)Cc2cc(NC(=O)Nc3cccc4ccccc34)ccc2O[C@H]1CN(C)CC1CC1 | -1 | -2 | 4.0
CNC[C@H]1Oc2c(NC(=O)c3ccncc3)cccc2C(=O)N([C@H](C)CO)C[C@H]1C | 0 | -1 | -0.3
C[C@@H]1CCCCO[C@H](CN(C)C(=O)Nc2cccc3ccccc23)[C@H](C)CN([C@H](C)CO)C(=O)c2cc(N(C)C)ccc2O1 | -1 | -1 | 1.6
COc1ccc(NC(=O)Nc2ccc3c(c2)CC(=O)N([C@H](C)CO)C[C@@H](C)[C@@H](CN(C)C(=O)NC(C)C)O3)cc1 | 4 | 4 | -0.2
NC(Cc1ccccc1)c1csc(Nc2ccc(C(=O)NCCCO)cn2)n1 (stereo unspecified) | -6 | 0 | 6.1
COc1ccc(NC(=O)Nc2ccc3c(c2)C(=O)N([C@H](C)CO)C[C@@H](C)[C@@H](CN(C)C(=O)Cc2ccccc2)OCCCC[C@H](C)O3)cc1 | 1 | -6 | 0.0
C[C@H]1CN([C@@H](C)CO)C(=O)c2c(c3ccccc3n2C)-c2ccccc2CO[C@@H]1CN(C)C(=O)C1CC1 | -1 | 5 | -1.5
COc1ccc2c3c([nH]c2c1)[C@@H](CO)N(C(=O)C1CCCCC1)CC31CCN(S(C)(=O)=O)CC1 | 3 | 5 | -0.7
C[C@H]1CN([C@@H](C)CO)S(=O)(=O)c2ccc(C#CCN(C)C)cc2O[C@@H]1CN(C)C(=O)CN(C)C | 3 | 12 | -2.5
CCc1nc2ccc(C(=O)NCCNC(C)=O)cn2c1N(CC)Cc1cccc(Br)c1 | 7 | -4 | 1.8
CCCCCCN(C(=O)CCCCCN1C(=O)NC(c2ccccc2)C(C(=O)OCc2ccccc2)=C1C)C(C(=O)NCCCC)c1ccc(OCC(=O)OC)c(C(=O)OC)c1 (stereo unspecified) | 10 | 13 | 7.3
COC(=O)[C@H]1[C@H](CO)[C@H]2Cn3c(ccc(-c4ccc(F)cc4)c3=O)[C@H]2N1C | -3 | 1 | -1.7
CCN(C(=O)c1cc(OC)c(OC)c(OC)c1)C1CCCCC1 | 5 | 9 | 0.1
CCCC(C)(C)C(=O)N1CCC1(C)C(=O)Nc1cccc2ccccc12 (stereo unspecified) | -23 | -35 | -8.6
C[C@@H]1CCCCO[C@@H](CN(C)C(=O)CCC(F)(F)F)[C@@H](C)CN([C@H](C)CO)C(=O)c2cc(NS(=O)(=O)c3cn(C)cn3)ccc2O1 | 1 | -1 | 0.1
Cc1noc(C)c1NC(=O)N(C)C[C@@H]1Oc2ccc(NC(=O)CCCCCC(=O)Nc3ccccc3N)cc2C(=O)N([C@H](C)CO)C[C@H]1C | 2 | 1 | 0.2
O=C(CC[C@H]1O[C@@H](n2ccc(=O)[nH]c2=O)[C@H](O)[C@@H]1O)N[C@@H](Cc1ccccc1)C(=O)NCc1ccccc1 | 15 | 16 | 0.8
Cc1cc(C)c(NC(=O)C2C(=O)Nc3ccccc3C(=O)N2C(C)(C)C)c(C)c1 (stereo unspecified) | 13 | 11 | 2.1
CCc1nc2c(OCc3ccc(OC)cc3)cccn2c1N(C)C(=O)c1ccco1 | 2 | 8 | 15
O=[N+]([O-])c1ccc(CN2[C@H](COCc3ccccc3)[C@@H](N3CCCC3)CS2(=O)=O)cc1 | 5 | -6 | 0.1
CCNC(=O)C[C@H]1CC[C@@H](NS(=O)(=O)c2ccc(F)cc2)[C@H](CO)O1 | 4 | 11 | -1.8
COc1ccc2c3c([nH]c2c1)[C@@H](CO)N(Cc1ccncc1)CC31CCN(CC2CCOCC2)CC1 | 1 | 1 | 1.6

# Whole records, looked up by structure. Screens in order: rRNA inh HTS, rRNA inh HTS OD600, rRNA inh HTS RFP
# Profile of O=[N+]([O-])c1ccc(CN2[C@H](COCc3ccccc3)[C@@H](N3CCCC3)CS2(=O)=O)cc1 : 5, -6, 0.1
# Profile of CCc1nc2ccc(C(=O)NCCNC(C)=O)cn2c1N(CC)Cc1cccc(Br)c1 : 7, -4, 1.8
# Profile of CCN(C(=O)c1cc(OC)c(OC)c(OC)c1)C1CCCCC1 : 5, 9, 0.1
# Profile of C[C@@H]1CCCCO[C@H](CN(C)C(=O)Nc2cccc3ccccc23)[C@H](C)CN([C@H](C)CO)C(=O)c2cc(N(C)C)ccc2O1 : -1, -1, 1.6
# Profile of CCCCCCN(C(=O)CCCCCN1C(=O)NC(c2ccccc2)C(C(=O)OCc2ccccc2)=C1C)C(C(=O)NCCCC)c1ccc(OCC(=O)OC)c(C(=O)OC)c1 (stereo unspecified) : 10, 13, 7.3

# Next results follow.
SMILES | rRNA inh HTS | rRNA inh HTS OD600 | rRNA inh HTS RFP
CCc1cc(-c2nnn(CCC3COCCO3)c2CC)ccc1-c1cn(Cc2ccc3ccccc3c2)nn1 (stereo unspecified) | -9 | 1 | -1.9
O=C(c1cccnc1)N1CCCCN2[C@H](CO)[C@@H](c3ccc(C#Cc4cccnc4)cc3)[C@H]2C1 | -6 | -4 | -3.7
O=C(Nc1cc(F)ccc1F)N1CC(=O)N2[C@H](CO)[C@@H](c3ccc(C#CC4CCCC4)cc3)[C@H]2C1 | -2 | -19 | 5.2
CCOC(=O)c1c(-c2cc(OC)c(OC)c(OC)c2)csc1NC(=O)c1ccccc1 | -4 | -10 | 6.1
O=C(c1ccccc1F)N1CC2(C1)[C@H](c1ccccc1)[C@@H](CO)N2CC1CCOCC1 | 2 | 5 | -1.3
Cc1ccc(S(=O)(=O)N[C@H]2C=C[C@H](CC(=O)NCc3ccccc3F)O[C@H]2CO)cc1 | -1 | -1 | 1.7
COCC(=O)N1CCC2(CC1)CN(Cc1cccc(OC)c1)[C@@H](CO)c1[nH]c3cc(OC)ccc3c12 | 2 | -1 | 0.3
Cc1ccc(CNC(=O)[C@H]2O[C@@H](n3cnc4c(N)ncnc43)[C@H](O)[C@@H]2O)o1 | -6 | -5 | -1.9
O=C(NCc1ccccc1)c1cc(C2COCCN2C(=O)C2CC2)on1 (stereo unspecified) | 5 | 8 | 0.0
COc1ccccc1NC(=O)Nc1ccc2c(c1)C(=O)N(C)C[C@@H](OC)[C@H](C)CN(C)[C@@H](C)CO2 | 0 | -2 | -0.2
CCc1nc2ccc(C(=O)NCCNC(C)=O)cn2c1N(C)Cc1ccc(OC)cc1 | -1 | 4 | -1.8
COc1ccc(C#Cc2ccc([C@@H]3[C@@H](CO)N4CCCCN(C(=O)Nc5ccccc5F)C[C@@H]34)cc2)cc1 | 1 | -1 | -0.2

# Next section.
# Second line of a record – rRNA inh HTS	rRNA inh HTS OD600	rRNA inh HTS RFP
N#C[C@@H]1[C@H](c2ccccc2-c2cccc(F)c2)[C@@H](CO)N1C(=O)C1CC1
→ 0	-12	0.6
O=c1[nH]c(-c2ccccc2)cn1C1CCN(Cc2ccc(-c3nc4ccc(Br)cc4nc3-c3ccccc3)cc2)CC1
→ 11	15	8.6
C[C@@H]1CN([C@@H](C)CO)C(=O)c2cc(C#Cc3ccccc3)cnc2O[C@@H]1CN(C)CC1CCOCC1
→ 2	17	3.3
Cc1nc(C(F)(F)F)ccc1C(=O)N1CCCCCC1(C)C(=O)NCC(C)C (stereo unspecified)
→ 14	9	3.3
COc1ccccc1NC(=O)N1CCCCN2[C@H](CO)[C@H](c3ccc(-c4ccc(C)cc4)cc3)[C@@H]2C1
→ -1	-5	8.9
C[C@@H]1CN([C@H](C)CO)C(=O)c2cc(NC(=O)c3ccccc3)ccc2O[C@@H](C)CCCCO[C@@H]1CN(C)C(=O)c1ccccc1
→ -3	-4	-3.2
CN(C)C(=O)c1cccc(-c2ccccc2[C@H]2[C@@H](CO)N(C(=O)C3CC3)[C@H]2C#N)c1
→ 2	5	-3.4
CCCNC(=O)N1CC2(C1)CN(C(=O)Nc1ccc(F)cc1)[C@H](CO)c1[nH]c3cc(OC)ccc3c12
→ 0	-1	-2.7
COCC(=O)N1CCC2(CC1)CN(Cc1ccccn1)[C@H](CO)c1[nH]c3cc(OC)ccc3c12
→ 7	6	2.3
CCCCCCCCN1C(=O)[C@H](CC(=O)N2CCN(C(=O)C3CC3)CC2)C[C@@]2(C(=O)OC)CC(C)(C)CC=C12
→ -5	-18	5.6
COc1ccc2c3c(n(C)c2c1)[C@@H](CO)N(C(=O)CC1CC1)CC31CCN(Cc2ccncc2)CC1
→ -3	0	-3.8
COC(=O)[C@]12CCCCC=C1N(Cc1cccc3ccccc13)C(=O)[C@H](CC(=O)NCc1ccc(C)o1)C2
→ -11	-2	6.8
COc1ccc(S(=O)(=O)Nc2ccc3c(c2)CC(=O)N([C@H](C)CO)C[C@@H](C)[C@@H](CN(C)S(=O)(=O)c2ccc(OC)cc2)O3)cc1
→ -2	-7	5.2
C[C@H](CO)N1C[C@H](C)[C@H](CN(C)Cc2ccc(Cl)c(Cl)c2)OCCCC[C@H](C)Oc2ccc(NC(=O)NC3CCCCC3)cc2C1=O
→ 0	-2	-1.5
CNC[C@H]1Oc2c(NC(=O)C3CC3)cccc2C(=O)N([C@H](C)CO)C[C@H]1C
→ 2	10	-4.2
C/C=C/c1ccc([C@@H]2[C@H]3CN(C(=O)Nc4ccc(OC)cc4)CCCCN3[C@H]2CO)cc1
→ 0	-21	12
O=C(COc1ccc([N+](=O)[O-])cc1)NNC(=O)C1COc2ccccc2O1 (stereo unspecified)
→ -4	6	1.1
COC(=O)[C@]12C[C@H](CC(=O)NCc3cccc(C(F)(F)F)c3)C(=O)N(CCC3=CCCCC3)C1=C[C@H](COCc1ccccc1)O[C@@H]2C
→ 0	8	-3.3
CCCNC(=O)N1C[C@H]2[C@@H](c3ccccc31)[C@@H](CO)N2C(=O)CN1CCOCC1
→ 1	6	0.6
O=C1NC(Cc2ccccc2)c2nc3ccc(Br)cc3c(=O)n2-c2cc3ccccc3cc21 (stereo unspecified)
→ 1	38	-0.6
OC[C@@H]1[C@@H](c2ccc(C#Cc3ccccc3)cc2)[C@H]2CN(CC3CCOCC3)CCCCN12
→ -7	-45	12
CCC[C@H]1CN(c2ccccc2)C(=O)[C@@H]1CC(=O)Nc1ccc(OC)cc1
→ -13	-16	0.0
C[C@@H]1CCCCO[C@H](CN(C)Cc2ccc(C(=O)O)cc2)[C@@H](C)CN([C@H](C)CO)C(=O)c2cc(NC(=O)Nc3cccc4ccccc34)ccc2O1
→ -1	9	0.7
C[C@@H]1CCCCO[C@@H](CN(C)C(=O)CCC(F)(F)F)[C@H](C)CN([C@@H](C)CO)C(=O)c2cc(NC(=O)CCC(F)(F)F)ccc2O1
→ 1	2	-0.9
COc1ccccc1NC(=O)N(C)C[C@@H]1OCc2ccccc2-c2ccccc2C(=O)N([C@@H](C)CO)C[C@H]1C
→ -2	4	0.6
COc1cccc(NC(=O)N2CC(=O)N3[C@H](CO)[C@@H](c4ccc(C5=CCCCC5)cc4)[C@H]3C2)c1
→ -12	-36	7.5
C[C@@H]1CN([C@H](C)CO)C(=O)c2cccc(NC(=O)c3ccc(-c4nccs4)cc3)c2O[C@@H]1CN(C)Cc1ccc(-c2ccccc2)cc1
→ 2	0	1.9
COc1cccc(C#Cc2cnc3c(c2)C(=O)N([C@H](C)CO)C[C@@H](C)[C@@H](CN(C)C(=O)C2CCCCC2)O3)c1
→ 4	-18	11
C[C@@H]1CN([C@@H](C)CO)C(=O)c2cc(NS(=O)(=O)c3cccs3)ccc2O[C@@H](C)CCCCO[C@@H]1CN(C)C(=O)CCC(F)(F)F
→ -2	-3	-1.6
CCC(=O)N1[C@@H](CO)[C@@H](c2ccccc2)C12CN(C(=O)c1ccc(F)cc1)C2
→ 3	-2	-2.5
C[C@H](O)C#Cc1cnc2c(c1)C(=O)N([C@@H](C)CO)C[C@@H](C)[C@@H](CN(C)C(=O)CN(C)C)O2
→ 2	0	-0.1
C[C@@H]1CN([C@@H](C)CO)C(=O)c2cccc(NS(=O)(=O)c3cn(C)cn3)c2O[C@H]1CN(C)C(=O)Nc1ccccc1
→ -2	4	-3.9
C[C@@H]1CCCCO[C@@H](CN(C)CC2CCCCC2)[C@@H](C)CN([C@H](C)CO)C(=O)c2cc(NC(=O)Nc3ccc4c(c3)OCO4)ccc2O1
→ -10&-10	-5&-1	-6.3&6.2
COCCCNc1ccn2nc(-c3ccc(OCc4ccccc4)cc3)cc2n1
→ 1	1	2.9
CCNC(=O)C[C@H]1CC[C@@H]2[C@@H](COc3ccc(NS(C)(=O)=O)cc3C(=O)N2C)O1
→ 4	5	-0.7
N#C[C@@H]1[C@@H](c2ccccc2-c2cccc(F)c2)[C@@H](CO)N1C(=O)C1CCC1
→ 0	3	1.8
COc1ccccc1S(=O)(=O)N[C@@H]1CC[C@H](CC(=O)N2CCN(C)CC2)O[C@@H]1CO
→ 6	11	-2.0
O=C(N[C@H](C(=O)N1CCC[C@H]1C(=O)NC1CCCC1)C1CCCCC1)c1ccc(Cl)c(Cl)c1
→ -8	-37	-4.5
C[C@@H]1CCCCO[C@@H](CN(C)Cc2ccc(C(F)(F)F)cc2)[C@H](C)CN([C@H](C)CO)C(=O)c2cc(NC(=O)Nc3ccc(F)cc3)ccc2O1
→ -2	-7	-0.3
CC(=O)Oc1ccc2c(c1)C(=O)CCCCCC(=O)O2
→ 4	2	1.0
